D2 PAM: human D2 receptor positive allosteric modulation; P14416; DiscoveRx D2 beta-arrestin cells, luminescence, 90 min; 100% = 57 uM dopamine signal; potentiation, % (no concentration beside the values); 360,000 compounds, 0.23% hits; AID 624464; active = potentiation of 50% or more; inconclusive = 30% to 50%; inactive = 30% or less;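 further: compound concentration not given in the record; tested on top of an EC20 dose of dopamine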
Target sequence (P14416 whole entry, looked up): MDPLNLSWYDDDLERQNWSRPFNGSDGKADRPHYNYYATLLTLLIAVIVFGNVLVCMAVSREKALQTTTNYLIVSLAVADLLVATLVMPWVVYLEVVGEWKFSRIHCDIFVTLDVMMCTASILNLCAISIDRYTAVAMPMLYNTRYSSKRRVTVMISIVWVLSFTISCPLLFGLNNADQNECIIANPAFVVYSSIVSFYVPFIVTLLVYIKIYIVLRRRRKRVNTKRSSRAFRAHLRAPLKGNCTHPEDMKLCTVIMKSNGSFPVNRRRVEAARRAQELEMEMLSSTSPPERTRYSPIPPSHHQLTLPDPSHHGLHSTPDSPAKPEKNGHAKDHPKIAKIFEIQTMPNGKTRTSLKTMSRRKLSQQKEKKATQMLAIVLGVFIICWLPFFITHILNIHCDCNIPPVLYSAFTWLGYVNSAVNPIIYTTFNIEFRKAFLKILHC
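PathHunter D2 cells, attached overnight at 37 deg C, received compound in DMSO plus dopamine at EC20 (50 nM final) for 90 min at 37 deg C. Beta-arrestin recruitment was read as luminescence after 1 h with detection reagent at ambient temperature.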
PINK1 modulator: modulators of PINK1 expression; PINK1 immunofluorescence, high-content cytometry, 24 h; Potency, µM (series often up to 76.6 µM), inactives show at the highest dose activation (PINK1 increase), actives largely listed as activators; 410,000 compounds, 0.2% hits; AID 624263; active = well fitted activation curve with a large enough effect; inconclusive = small, poorly fitted or top-dose-only effect; inactive = flat fitted curve, though single readings scatter; cell line not stated here;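 further: potency means the concentration at half of the fitted maximal effect; % of control where 0% means no effect; nearly all actives have a fitted effect of over 65% in size; a mitochondrial uncoupler was the plate control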
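Cells are seeded, rested 12 hours, then given compound at five concentrations or DMSO for 24 hours. After fixation, blocking and antibody staining, PINK1 amount and mitochondrial localization are scored; CCCP serves as control.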
D2 ag: human D2 receptor agonism in beta-arrestin assay | DiscoveRx PathHunter D2 beta-arrestin, luminescence, 90 min; 100% = 57 uM dopamine signal | 360,000 compounds, 0.084% hits | activation, % (concentration not given with the values); in the data active = activation above about 40%; inconclusive = about 15% to 40%; inactive = below about 15%; further: the text of the record calls up to 30% inactive
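Agonist mode: compounds alone added to overnight-plated D2 PathHunter cells for 90 min at 37 C, with 57 uM final dopamine (EC100) defining full response. Beta-arrestin recruitment detected by chemiluminescent reagent, read after 1 h at ambient temperature.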
Six1-Eya2 inh: blocks human Six1 binding to Eya2; AlphaScreen GST-Six1/His-Eya2 binding, biochemical; stronger effect = lower value; control for the full effect not named in the record; activity change, % (concentration not given with the values); 360,000 compounds, 0.56% hits; in the data active = activity change below about -65%; inconclusive = about -30% to -65%; inactive = above about -30%; further: on the % scale 0 is the no-effect control and ±100 the full control effect
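GST-Six1 + His-Eya2 (5X stock: 250/500 nM); Tris pH 8.0, 300 mM NaCl, 0.05% BSA, 0.02% Tween 20; GSH donor/Ni acceptor beads; 1 h 37 °C dark; AlphaScreen readout.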
TRPML1 blocker: blocks the human TRPML1 channel. Q9GZU1. TRPML1-inducible cells, Ca2+ dye fluorescence, FDSS; stronger effect = lower value; inhibition of EC80 agonist-evoked calcium signal. activity change, negative = inhibition, % (no concentration beside the values). 390,000 compounds, 0.02% hits. AID 624415; in the data active means activity change below about -50%; inconclusive means about -30% to -50%; inactive means above about -30%;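 further: stimulus is agonist 54-4 at its EC80 concentration; on the % scale 0 is the no-effect control and ±100 the full control effect; compound concentration not given in the record; the text of the record puts the active cut at -80%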
Target sequence (Q9GZU1 whole entry, looked up): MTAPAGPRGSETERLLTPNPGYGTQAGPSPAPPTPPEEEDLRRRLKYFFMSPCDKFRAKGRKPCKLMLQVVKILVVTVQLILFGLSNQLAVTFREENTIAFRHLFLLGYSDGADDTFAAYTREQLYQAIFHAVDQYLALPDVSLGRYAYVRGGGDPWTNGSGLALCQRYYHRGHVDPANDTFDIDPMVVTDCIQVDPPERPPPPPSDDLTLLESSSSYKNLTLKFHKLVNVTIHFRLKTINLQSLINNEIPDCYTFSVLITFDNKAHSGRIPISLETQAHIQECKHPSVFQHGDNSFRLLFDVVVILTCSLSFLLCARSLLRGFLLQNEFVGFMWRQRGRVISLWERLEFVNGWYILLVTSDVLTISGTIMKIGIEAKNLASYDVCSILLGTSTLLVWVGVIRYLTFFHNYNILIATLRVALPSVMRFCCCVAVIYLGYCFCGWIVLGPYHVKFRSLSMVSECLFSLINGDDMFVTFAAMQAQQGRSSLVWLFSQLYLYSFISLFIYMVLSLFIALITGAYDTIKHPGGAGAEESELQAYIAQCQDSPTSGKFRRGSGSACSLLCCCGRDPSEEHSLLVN
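Tet-induced TRPML1-DL cells loaded with Ca8 no-wash calcium dye were read kinetically on FDSS. Compound addition was followed by EC80 agonist 54-4 (4 uM final); inhibition was read over 110 s.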
TRPML1 ag: activates the human TRPML1 channel. Q9GZU1. TRPML1-expressing cells, Ca2+ dye fluorescence, FDSS; host cell line not named in the record; reference of the full effect not given here. activation, % (no concentration beside the values). 410,000 compounds, 0.12% hits. AID 624414; in the data active = activation above about 50%; inconclusive = about 30% to 50%; inactive = below about 30%; further: 0% is about no effect; the text of the record puts the active cut at 80%
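Agonist activity was taken from a 110 s kinetic Ca2+ dye read on the FDSS after pinning compounds onto TRPML1-DL cells. The cells were seeded at 1,500/well with Tet inducer, incubated about 16 h, then dye-loaded at room temperature.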
* = called active by the depositor; ? = inconclusive; . = no result given; [ ] = another dose, or the depositor's remark.

Compound	TRPML1 ag	TRPML1 blocker	Six1-Eya2 inh	D2 PAM	D2 ag	PINK1 modulator
CC(=O)c1c(C)[nH]c(C(=O)OCC(=O)N2CC(=O)Nc3ccccc32)c1C	-0.5	21	-3	-8	-1.5	-3.3%
O=C(/C=C/c1ccccc1[N+](=O)[O-])NCCCn1ccnc1	1.7	-5	0	-19	1.8	-1.0%
O=C(Nc1ccc2c(c1)OCO2)c1noc2c1CCCC2	-0.5	-6	-1	4	-2.1	0.0%
CC(C)Oc1ccc(C(=O)N2CCC(c3nc4ccccc4s3)CC2)cc1	-0.3	-3	.	.	.	0.2%
Cc1ccc(NC(=O)CNC(=O)c2ccc3c(c2)OCO3)nc1	0.2	19	2	-9	2.0	-0.1%
O=C1OCCN1C(=O)[C@H]1[C@H](c2ccc(F)cc2)C(c2ccccc2)=NN1c1ccc(Br)cc1	0.3	51	32	.	-0.1	0.4%
Cc1cccc(OCCSc2nnc(-c3ccoc3C)n2C)c1	-1.6	-2	-4	9	-2.1	-2.1%
Cc1cc(NC(=O)CSCC(=O)N2CCN(c3cccc(C(F)(F)F)c3)CC2)no1	2.5	6	-2	-18	-4.5	1.1%
Cc1cccc(C)c1NC(=O)C1CC(=O)N(C(C)C)C1 (configuration not stated)	-0.9	-2	2	2	-3.9	-0.9%
Cc1cccc(OCc2nnc(SCC(=O)NCCc3ccccc3)o2)c1	0.6	1	3	-2	-2.5	-0.4%[38.3 µM]
C=CCn1c(SCc2ccccc2Cl)nnc1-c1sc2nc(C)cc(C)c2c1N	-0.8	2	10	-13	-3.7	2.2%
CCOc1ccc(NC(=O)Cn2c(=O)n(CCCC(=O)NC3CCN(Cc4ccccc4)CC3)c(=O)c3ccccc32)cc1	0.3	1	8	-8	3.0	1.0%
CC(C)N(C(=O)CSc1nc2ccccc2n1Cc1ccc(F)cc1)C(C)C	8.1	58	-2	-22	-3.4	5.5%
CC1CCN(C(=O)CSc2nnc(Cc3cccn3C)n2CCc2ccccc2)CC1	1.2	8	-1	-2	-0.7	0.0%
c1ccc(C[C@H]2CNCCN2CCC23CC4CC(CC(C4)C2)C3)cc1	-0.3	-6	-9	-16	-11	-0.7%

Quoted at random: 3 compounds from above, in no set order.
Compound	TRPML1 ag	TRPML1 blocker	Six1-Eya2 inh	D2 PAM	D2 ag	PINK1 modulator
O=C1OCCN1C(=O)[C@H]1[C@H](c2ccc(F)cc2)C(c2ccccc2)=NN1c1ccc(Br)cc1	0.3	51	32	.	-0.1	0.4%
Cc1cccc(C)c1NC(=O)C1CC(=O)N(C(C)C)C1 (configuration not stated)	-0.9	-2	2	2	-3.9	-0.9%
Cc1cccc(OCCSc2nnc(-c3ccoc3C)n2C)c1	-1.6	-2	-4	9	-2.1	-2.1%

More entries follow:
Compound	TRPML1 ag	TRPML1 blocker	Six1-Eya2 inh	D2 PAM	D2 ag	PINK1 modulator
c1ccc(-c2nnc(OCC3CCCO3)c3ccccc23)cc1 (configuration not stated)	0.3	2	2	-3	-4.6	0.3%
O=C(Nc1ccc(S(=O)(=O)Nc2ccccc2)cc1)N1CCCC1	0.1	22	.	.	.	-0.5%
COc1cccc(NCCC(=O)c2cccc([N+](=O)[O-])c2)c1	-1.5	-11	?	-5	-2.4	1.5%
OCCCCCCNc1ccc(CCO)cc1	-0.7	.	-4	3	-3.7	-1.3%
CC(=O)Nc1ccc2c(COC(=O)[C@H](C)N3C(=O)C4CCCCC4C3=O)cc(=O)oc2c1 (some centres not stated)	0.7	5	-24	-3	-1.4	-1.4%
COc1cc(OC)cc(C2=Cc3ccccc3C(CC(=O)c3ccco3)N2c2ccc(-c3cncnc3)cc2)c1 (configuration not stated)	0.3	.	-8	.	.	1.3%
C=CCNc1sc(C(=O)C(C)(C)C)c(N)c1C#N	0.6	2	-6	-10	3.3	-0.6%[38.3 µM]
Cc1ccc(C2CC(c3ccccc3Cl)n3nc(N)nc3N2)cc1 (configuration not stated)	2.0	13	-1	-5	3.6	0.4%
Cc1ccc(C(=O)NNS(=O)(=O)c2ccc(F)cc2)cc1	-0.2	9	6	1	-2.6	-0.2%
CCOc1ccc(S(=O)(=O)Nc2ccc3c(c2)CCCN3S(=O)(=O)c2ccc(C)cc2)cc1	0.1	46	.	.	.	2.7%
Cc1ccc(OCc2nnc(SCC(=O)NCc3ccco3)n2C)cc1	-0.4	5	-2	-1	-3.7	-0.6%
CCOc1cc(/C=C/c2ccc3cccc([N+](=O)[O-])c3n2)ccc1OCC(=O)N(C)C	-0.3	7	?	-28	-2.2	-0.7%
CN(C)S(=O)(=O)c1ccc(NC(=O)CN2CCCc3ccccc32)cc1	1.1	5	-22	6	8.6	1.2%
COc1cc(C(=O)N/N=C/c2sc(N3CCOCC3)nc2-c2ccccc2)cc(OC)c1OC	-1.0	10	0	-5	-3.5	2.7%
CC(=O)c1c(C)[nH]c(C(=O)COC(=O)CCNS(=O)(=O)c2ccc(C)c(C)c2)c1C	-0.5	-4	-6	-12	4.4	-0.3%

Compound	TRPML1 ag	TRPML1 blocker	Six1-Eya2 inh	D2 PAM	D2 ag	PINK1 modulator
CC(=NCC1CCCO1)C1=C(O)CC(C)(C)CC1=O (configuration not stated)	0.2	-1	4	-1	-4.7	-3.4%
COC(=O)C1CCCN1C(=O)COc1ccc(Br)cc1Cl (configuration not stated)	0.0	3	14	14	-0.8	4.7%
O=C(c1cccc(F)c1)N1CCCN(C(=O)c2cccc(F)c2)CC1	-0.4	14	0	-3	2.7	-1.5%
CCN(CC)C(=O)C(C)OC(=O)c1ccc(O)cc1 (configuration not stated)	-0.1	12	3	3	0.7	-0.6%
CCCCCc1cc(=O)oc2c(C(CCN3CCCC(C)C3)c3ccc(OC)cc3)c(OC)cc(OC)c12 (configuration not stated)	0.1	20	-10	-96	2.6	-1.0%
O=C(NNC(=O)c1cc2cc3ccccc3nc2s1)c1cccc(Cl)c1	0.5	-12	0	-8	1.8	17%
Nc1nc(-c2ccccc2)cc(-c2ccccc2O)n1	1.6	-4	-5	-1	1.2	.
O=Cc1ccc(O)c2ncccc12	0.5	-6	-74*	-28	-4.2	-2.5%
CN(C)S(=O)(=O)N1CCC(Oc2ccc(C(=O)N3C[C@@H]4CCC[C@H]3C4)cc2)CC1	0.9	0	0	-1	3.2	-2.4%
COc1ccc2[nH]c3c(c2c1)CCN1C(=O)N([C@@H](C)C(=O)NCc2ccc(C)cc2)C(=O)[C@]31C	.	.	-7	1	4.4	17%
CC(C)Oc1cccc(C(=O)Nc2ccc(CN3CCOCC3)cc2)c1	-0.2	69	-5	-10	-3.0	1.3%[38.3 µM]
Cc1ccc(S(=O)(=O)c2cn(Cc3ccccc3)c3cc(N4CCCC4)c(F)cc3c2=O)c(C)c1	0.0	10	.	.	.	-0.9%
CCOc1ccc(S(=O)(=O)Nc2cc(F)ccc2F)c2cccnc12	-0.7	7	-3	1	0.5	5.7%
Cc1ccc2c(c1)C1CN(C)CCC1N2S(=O)(=O)c1ccc(C#N)cc1 (configuration not stated)	0.2	-6	0	-32	-2.9	-1.4%
CCC(C(=O)N(C(C)C)C(C)C)c1ccccc1 (configuration not stated)	-0.6	12	1	-5	-1.6	2.3%

Compound	TRPML1 ag	TRPML1 blocker	Six1-Eya2 inh	D2 PAM	D2 ag	PINK1 modulator
COc1cc(C(=O)N2c3ccccc3CCC2C)cc(OC)c1OC (configuration not stated)	0.5	-10	-13	0	1.7	1.1%
CC(=O)c1cccc(NC(=O)C(C)OC(=O)/C=C/c2cccs2)c1 (configuration not stated)	0.0	4	-9	-7	-4.7	6.1%
O=C(N/N=C/C=C\c1ccccc1[N+](=O)[O-])c1ccncc1	0.5	15	-6	-6	-17	-0.2%
Cc1ccc(NC(=O)CSc2ncccc2C(=O)Oc2cccc([N+](=O)[O-])c2)cc1Cl	0.5	19	-4	9	-1.1	9.0%
CC1(C(=O)Nc2ccc3c(c2)OCCO3)CCN1C(=O)Cc1ccc(-c2ccccc2)cc1 (configuration not stated)	-0.8	.	-13	1	6.5	-0.5%
Cc1ccc(-n2[nH]c(C)c(C=Nc3cc(C)ccn3)c2=O)cc1	0.4	-3	0	-9	-2.5	0.6%
Cc1cccc(OCC(=O)N2CCN(C(=O)c3ccc([N+](=O)[O-])cc3)CC2)c1	-0.7	-19	-5	7	-2.4	1.1%
CS(=O)(=O)N1CCN(C2C3CC4CC(C3)CC2C4)CC1 (configuration not stated)	0.5	-4	3	-6	-6.1	3.1%
CCOC(=O)C1CCN(CC(O)COc2ccc(C(=O)CC)cc2)CC1 (configuration not stated)	0.1	7	1	10	?	0.0%
CN(C)S(=O)(=O)c1cccc(NC(=O)COc2cccc(C#N)c2)c1	-0.2	6	0	-26	0.0	4.0%
Cc1ccc(S(=O)(=O)N2CCCC2)s1	0.4	18	0	-14	-7.0	2.3%
Cc1ccc(Cl)cc1N1CCN(CCCNc2ncnc3onc(-c4ccc(F)cc4)c23)CC1	1.9	8	.	.	.	1.3%
Cc1cccc(C)c1NC(=S)N/N=C/c1c(Cl)cccc1Cl	-0.6	-13	12	0	-6.8	16%
O=C(Nc1cc(S(=O)(=O)N2CCCCC2)ccc1O)c1ccccc1NS(=O)(=O)c1ccc(F)c(F)c1	-0.8	-4	-8	20	0.5	?
Clc1ccccc1Nc1nc(NCc2ccccc2)nc2ccsc12	0.0	.	7	-10	-3.8	9.4%

Compound	TRPML1 ag	TRPML1 blocker	Six1-Eya2 inh	D2 PAM	D2 ag	PINK1 modulator
COCCNc1ncnc2c1ncn2[C@H]1CN(Cc2ccc(Cl)cc2)C[C@@H](CO)O1	-0.6	.	6	4	0.8	-0.1%
N#CC(c1ccccc1)C1CCN(Cc2ccccc2)CC1 (configuration not stated)	0.7	6	1	-37	0.8	1.5%
Cc1[nH]n(C(N)=S)c(=O)c1N=Nc1ccc2ccccc2c1	2.9	1	-12	-18	-7.0	-0.3%
CCCc1cc(=O)n2[nH]c(NCc3ccc(Cl)cc3Cl)nc2n1	0.9	-3	7	2	-0.7	-1.5%
CCOc1ccc(NC(=O)CSc2nc3c([nH]c4ccccc43)c(=O)n2-c2cc(C)cc(C)c2)cc1	1.8	22	.	.	.	-4.5%
Cc1ccc(CNC(=O)c2nnn(CC(=O)Nc3cc(C)ccc3C)c2N)cc1	1.3	5	.	.	.	6.7%
O=C(CNC(=O)c1ccccc1)N=Nc1c(O)[nH]c2ccc(Br)cc12	2.3	2	0	-3	-6.2	1.0%
CCOc1ccccc1NC(=O)CSc1nnc(CNC(=O)c2c(F)cccc2Cl)o1	-0.6	27	1	-5	-0.8	-0.1%
COC(=O)CC1Oc2ccc(C)cc2-n2cc(-c3ccc(C)cc3)nc21 (configuration not stated)	1.7	13	.	.	.	2.3%
COC(=O)c1ccc(C2Nc3ccccc3NC3=C2C(=O)CC(C)(C)C3)cc1 (configuration not stated)	.	.	-8	3	-0.1	0.3%
CC(=O)N(Cc1ccccc1C)c1cccc(C)c1C	-0.4	-10	0	-4	-1.4	3.0%
Cc1cccc(NC(=S)NCCN(C2CCCCC2)C2CCCC2)c1	-0.6	16	-11	-20	-3.3	7.5%

Assay outcomes as filed in PubChem.

This is a random part of the collection (roughly 1% active in at least one column).
